Screens: PubChem, National Center for Advancing Translational Sciences (NCATS)
TRPV1 potentiator – potentiators of human vanilloid receptor 1 (TRPV1); Q8NER1; TRPV1-expressing cells, Fluo-8 calcium influx, capsaicin EC20 potentiation; host cell line not named in the record; control for the full effect not named in the record; potentiation, % at 8.33 µM; 0.02% of 320,000 active; AID 540277; active means potentiation above 80%; inconclusive means 30% to 80%; inactive means below 30%; note: 0% is about no effect
Target sequence (Q8NER1 whole entry, looked up): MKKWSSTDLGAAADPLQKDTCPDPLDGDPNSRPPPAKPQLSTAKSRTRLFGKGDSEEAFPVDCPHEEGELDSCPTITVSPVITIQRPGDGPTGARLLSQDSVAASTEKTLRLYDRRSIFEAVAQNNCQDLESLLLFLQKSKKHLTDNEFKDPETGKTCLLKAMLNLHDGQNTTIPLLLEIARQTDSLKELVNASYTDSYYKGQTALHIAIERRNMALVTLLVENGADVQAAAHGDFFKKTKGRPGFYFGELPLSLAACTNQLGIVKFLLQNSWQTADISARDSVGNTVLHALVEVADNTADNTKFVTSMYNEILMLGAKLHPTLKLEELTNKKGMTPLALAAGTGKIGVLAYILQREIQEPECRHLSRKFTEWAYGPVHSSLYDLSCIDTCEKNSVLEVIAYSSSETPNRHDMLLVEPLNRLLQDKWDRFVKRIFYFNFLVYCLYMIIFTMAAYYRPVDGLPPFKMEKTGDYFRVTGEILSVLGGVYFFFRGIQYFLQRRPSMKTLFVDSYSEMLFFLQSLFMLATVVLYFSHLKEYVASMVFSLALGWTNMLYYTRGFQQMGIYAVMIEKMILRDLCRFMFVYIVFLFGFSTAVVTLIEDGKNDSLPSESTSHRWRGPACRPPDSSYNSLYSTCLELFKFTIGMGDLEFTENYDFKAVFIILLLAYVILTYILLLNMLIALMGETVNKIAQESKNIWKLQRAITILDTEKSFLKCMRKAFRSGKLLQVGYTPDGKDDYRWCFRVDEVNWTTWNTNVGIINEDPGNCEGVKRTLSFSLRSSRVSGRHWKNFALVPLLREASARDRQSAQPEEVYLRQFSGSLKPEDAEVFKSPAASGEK
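Cells expressing TRPV1 were dye-loaded with Fluo-8 and read kinetically: 10 s baseline, 3 min after compound (agonist portion), then 2 min after EC20 capsaicin (allosteric enhancer portion). Calcium-bound dye fluorescence at 480/520 nm.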
Sfp PPTase inh – inhibitors of Bacillus subtilis Sfp phosphopantetheinyl transferase | 3.5% of 310,000 active | Q9F4F7 | Potency, µM, for the others: max response, negative = inhibition, hits mostly inhibitors | AID 1490 | Biochemical Sfp PPTase activity, qHTS; active = well fitted inhibition curve with a large enough effect; inconclusive = small, poorly fitted or top-dose-only effect, or another doubt; inactive = no such curve, though single readings can be large or run the other way;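 note: the enzyme is Sfp with the accession as filed and its product quenches rhodamine fluorescence; potency is the fitted concentration of half-maximal effect; 0% = enzyme reaction without inhibitor and -100% = no enzyme wells; top concentration of the series not given in the record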
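Compounds were incubated with enzyme (final 15 nM) for 15 min at room temperature before substrate addition started the reaction. Fluorescence at 525 nm excitation, 598 nm emission was recorded immediately and after 30 minutes.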
ClpP mod – qHTS Assay for Activators of ClpP; purified B. subtilis ClpP, FRET peptide cleavage, 20 min; AID 651965, 2013; 1.9% of 340,000 active; Potency, µM (highest dose often 57.5 µM), inactives show at the highest dose activity change, negative = active; active = well fitted falling curve with a large enough effect; inconclusive = small, poorly fitted or top-dose-only effect; inactive = no such curve, though single readings can be large or run the other way; note: potency is the fitted concentration of half-maximal effect; the source files actives as falling curves though it sought activators and does not explain the sign; nearly all actives have a fitted effect of over 65% in size; many hits overshoot -100%
Target sequence (P80244 whole entry, looked up): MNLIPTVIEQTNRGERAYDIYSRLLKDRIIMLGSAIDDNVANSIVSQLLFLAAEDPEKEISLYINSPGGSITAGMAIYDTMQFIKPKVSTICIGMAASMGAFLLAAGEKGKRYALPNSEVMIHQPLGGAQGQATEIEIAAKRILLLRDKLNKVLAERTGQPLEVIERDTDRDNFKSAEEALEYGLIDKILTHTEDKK
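FRET quenching reversal measured ClpP activation: 10 microg/mL B. subtilis ClpP at pH 8 with the FRET-FV decapeptide, read at 430 nm after 320 nm excitation. The 20-min minus 0-min signal was scaled between DMSO/no-enzyme wells and ADEP (5.8 microM final).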
TRPML1 inh – human mucolipin-1 channel inhibition. TRPML1-inducible cells, Ca2+ dye fluorescence, FDSS; hits give low values; inhibition of EC80 agonist-evoked calcium signal. activity change, negative = inhibition, % (no concentration beside the values). 0.02% of 390,000 active. AID 624415; in the data active means activity change below about -50%; inconclusive means about -30% to -50%; inactive means above about -30%;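 note: stimulus is agonist 54-4 at its EC80 concentration; % is set by controls: 0 for no effect and ±100 for the full control effect; compound concentration not given in the record; the text of the record puts the active cut at -80%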
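Calcium fluorescence in TRPML1-DL cells induced overnight with Tet: a 110 s read after compound pin addition, then a 110 s antagonist read after challenge with 54-4 at 4 uM final (EC80).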
Menin MLL FP FL – inhibitors of human menin-MLL interaction, wild-type MLL peptide. Fluorescence polarization, fluorescein-MLL peptide displacement from menin. FP activity change, % at 61.4 µM. 290,000 tested, under 10 active. AID 1766; inconclusive = falling polarisation curve, or a change in total fluorescence; inactive = total fluorescence flat and polarisation flat or rising; no compound was filed as active; the % refers to the polarisation; negative = inhibition;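 note: % of control where 0% means no effect; inhibitors lower the polarisation; unlabelled MLL peptide was the positive control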
TRPML1 ag – human mucolipin-1 channel agonism; 0.12% of 410,000 active; activation, % (test concentration not listed); TRPML1-expressing cells, Ca2+ dye fluorescence, FDSS; host cell line not named in the record; reference of the full effect not given here; Q9GZU1; in the data active = activation above about 50%; inconclusive = about 30% to 50%; inactive = below about 30%; note: 0% is about no effect; the text of the record puts the active cut at 80%
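In this qHTS format, compounds were pin-transferred onto Ca8-dye-loaded TRPML1-DL cells induced with Tet overnight, and intracellular Ca2+ fluorescence was recorded kinetically for 110 s after a 10 s baseline. A subsequent 4uM final 54-4 (EC80) addition followed by a second 110 s read served as the antagonist phase.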
PINK1 expr mod – changes PINK1 expression. PINK1 immunofluorescence, high-content cytometry, 24 h. Potency, µM (top dose mostly 76.6 µM), for inactives: at the highest dose activation (PINK1 increase), most hits filed as activators. 0.2% of 410,000 active; active = well fitted activation curve with a large enough effect; inconclusive = small, poorly fitted or top-dose-only effect; inactive = flat fitted curve, though single readings scatter; cell line not stated here;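 note: potency is the fitted concentration of half-maximal effect; % of control where 0% means no effect; nearly all actives have a fitted effect of over 65% in size; a mitochondrial uncoupler was the plate control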
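Decision-based qHTS: stable cells, 24 h exposure to five compound concentrations, CCCP as control. Fixed cells stained for PINK1 plus nuclear, mitochondrial and cell markers, cytometer read.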
Numbers without * were called inactive; ? = inconclusive; / = no result given; [ ] = another dose, or the depositor's remark. Rows are unselected, and some 4.4% of all compounds hit somewhere here.

SMILES	TRPV1 potentiator	Sfp PPTase inh	ClpP mod	TRPML1 inh	Menin MLL FP FL	TRPML1 ag	PINK1 expr mod
CCCCCC(=O)NC(Nc1ccc(S(N)(=O)=O)cc1)C(Cl)(Cl)Cl (stereo not drawn)	-4	-2%	-1.9%	15	11	0.0	1.2%
CCN(CC)S(=O)(=O)c1ccc(C(=O)N2CCCCC2)cc1	-4	-6%	2.5%	-8	-2.4	0.0	/
COc1ccc(NC(=O)c2cc([N+](=O)[O-])ccc2N2CCCC2)cc1	-1	-17%	/	-1	2.9	0.2	0.9%
COc1ccc(S(=O)(=O)N2CCCC2C(=O)Nc2ccc(C(C)=O)cc2)cc1 (stereo not drawn)	20	4%	0.0%	-11	3.0	0.9	2.0%
COc1cccc(OC)c1C(=O)Nc1cccc(S(=O)(=O)Nc2ccccc2Cl)c1	/	/	-2.6%	-9	/	1.9	0.5%
COc1ccc(S(=O)(=O)N2CCN(C(=O)c3cc(C)nc4ccccc34)CC2)cc1OC	/	/	-2.3%	-15	/	-0.4	-1.7%
CCC/C(O)=C1\C(=O)CC(C)(C)CC1=Nc1cccc([N+](=O)[O-])c1	-7	6%	/	5	3.3	1.4	0.6%
N#CC1=C(SCc2ccc(C#N)cc2)N=C(N)C(c2nc(-c3ccccc3)cs2)C12CCCCC2 (stereo not drawn)	-5	19%	-4.4%	15	6.1	0.5	0.5%
COC(=O)c1cc(Cc2ccc(N)c(C(=O)OC)c2)ccc1N	-7	-25%	28µM*	-12	-0.4	-0.1	0.1%
CCCCc1nc2cc(C(=O)N3CCC(O)CC3)ccc2o1	-3	0%	1.5%	-3	-0.8	0.3	1.9%
COc1ccc(C2C(C(C)=O)=C(C)Nc3ncnn32)c(OC)c1OC (stereo not drawn)	25	6%	-1.3%	7	3.7	0.4	-1.1%
CCOc1ccc(N(CC)C(=O)COc2cc(=O)n(CC)c3ccccc23)cc1	-13	-2%	-4.7%	-8	-1.0	3.3	-2.4%
Cc1ccc(-n2c(=O)c3oc4ccccc4c3n(CC(=O)Nc3ccc(F)c(Cl)c3)c2=O)cc1C	/	/	?	14	/	-0.2	1.2%
CN(CCC1CCCCO1)C(=O)CCc1nnc(C2CCCCC2)o1 (stereo not drawn)	13	23%	-0.8%	22	-0.1	1.5	-1.5%
CC(CCc1ccccc1)NC(=O)c1ccncc1 (stereo not drawn)	-2	13%	-0.4%	-4	-0.1	-0.5	-0.1%
CCOc1ccccc1C(=O)n1nc(C)cc1C	-11	5%	-1.8%	18	-0.4	-0.7	-0.9%
CC1=NN(C(=O)CCCc2ccccc2)C(O)(C(F)(F)F)C1 (stereo not drawn)	11	5%	-1.8%	-5	-0.5	-0.9	-0.3%
Cc1ccc(C)c(Cn2nnc3c(=O)[nH]c(C4CCN(C(=O)c5cccs5)CC4)nc32)c1	4	-21%	-2.0%	6	2.9	2.2	-1.4%
COC(=O)c1cc2sc(C)cc2n1Cc1ccccc1	/	/	-10%	3	/	0.5	3.1%
Cc1cc(C)nc(SCc2ccc(F)cc2)n1	5	15%	/	-11	-4.6	2.0	0.9%
CC(C)OCCCNC(=S)Nc1ccc(S(N)(=O)=O)cc1	-3	2.2µM*	2.2%	27	1.5	0.9	2.1%
CCSc1nsc(NC(=O)Nc2ccccc2Cl)n1	/	/	/	-13	/	-0.2	?
Cc1ccc(CNC(=O)CCCN2C(=O)c3cccnc3Oc3ccc(Cl)cc32)cc1	/	/	2.5%	21	/	3.2	0.6%
CCN1CCN(Cc2ccc(NC(=O)c3ccc(C)c(NC(=O)c4csc(-c5ccncc5)n4)c3)cc2C(F)(F)F)CC1	-17	-9%	-2.1%	26	10	1.5	-1.8%
O=C(CN(C(=O)c1csnn1)c1ccc(F)cc1)NCc1ccc(F)cc1	-12	10%	/	4	1.6	0.3	-2.3%

Compound profiles (already shown):
Record of CCN1CCN(Cc2ccc(NC(=O)c3ccc(C)c(NC(=O)c4csc(-c5ccncc5)n4)c3)cc2C(F)(F)F)CC1 → TRPV1 potentiator = -17; Sfp PPTase inh = -9%; ClpP mod = -2.1%; TRPML1 inh = 26; Menin MLL FP FL = 10; TRPML1 ag = 1.5; PINK1 expr mod = -1.8%
Record of CC(C)OCCCNC(=S)Nc1ccc(S(N)(=O)=O)cc1 → TRPV1 potentiator = -3; Sfp PPTase inh = 2.2µM*; ClpP mod = 2.2%; TRPML1 inh = 27; Menin MLL FP FL = 1.5; TRPML1 ag = 0.9; PINK1 expr mod = 2.1%
Record of COc1ccc(NC(=O)c2cc([N+](=O)[O-])ccc2N2CCCC2)cc1 → TRPV1 potentiator = -1; Sfp PPTase inh = -17%; ClpP mod = /; TRPML1 inh = -1; Menin MLL FP FL = 2.9; TRPML1 ag = 0.2; PINK1 expr mod = 0.9%

Next part:
SMILES	TRPV1 potentiator	Sfp PPTase inh	ClpP mod	TRPML1 inh	Menin MLL FP FL	TRPML1 ag	PINK1 expr mod
COc1cccc(COC(=O)c2c(C)nn(-c3ccccc3)c2Cl)c1OC	-9	10%	-1.8%	29	/	2.4	3.5%
Cc1cc(C(=O)COC(=O)c2ccc3c(c2)OCO3)c(C)n1Cc1cccs1	-7	-4%	-0.1%	-14	3.9	1.5	1.2%
CC1(C)CC(=O)C(C(C#Cc2ccccc2)C2=C(O)CC(C)(C)CC2=O)=C(O)C1	6	?	1.2%	5	0.4	0.1	-8.8%[38.3 µM]
COc1ccc(NC(=O)CN(C)S(=O)(=O)c2ccc(Cl)cc2)cn1	-7	/	1.6%	-12	/	-1.1	2.2%
COc1cc(NS(=O)(=O)c2c(C(=O)N3CCCCC3)c(C)n(C)c2C)cc(OC)c1OC	/	/	-0.1%	-19	/	0.8	0.8%
Cn1cc(C(=O)c2ccc(Cl)cc2Cl)cc1C=O	17	8%	/	-22	-1.3	0.5	1.9%
O=C(Cn1ncc2c3ccccc3n(Cc3ccccc3F)c2c1=O)NCCCN1CCCC1=O	?	-9%	3.5%	4	/	-0.1	-1.2%
CCC(C)NC(=O)NC1C(NC(=O)NC(C)CC)N(C)C(=O)N1C (stereo not drawn)	1	5%	-1.5%	-8	2.0	0.4	?
CCN(CC)S(=O)(=O)c1cccc(NC(=O)CCNC(=O)c2ccccc2Cl)c1	8	15%	-1.9%	-4	-0.6	-1.0	-0.2%
O=C(N/N=C/C(Br)=C\c1ccccc1)c1ccco1	-5	-6%	/	3	3.4	0.0	3.5%
Cc1ccc(S(=O)(=O)NCc2cccnc2)cc1C(=O)NC1CCCCC1	0	/	1.5%	-15	/	0.1	4.0%
COc1cc(C2C(C#N)=C(N)OC3=C2C(=O)CCC3)ccc1OC(=O)N1CCOCC1 (stereo not drawn)	13	14%	-0.5%	-20	1.4	0.4	/
O=C(Nc1nn[nH]n1)c1ccc(S(=O)(=O)N2CCCCC2)cc1	-2	-23%	0.4%	-5	-2.2	0.1	-0.5%
CCc1ccccc1NC(=O)N1CCCc2ccccc21	12	1%	-0.2%	8	2.0	-0.9	0.6%
CC(C)C(=O)Nc1ccc2nc(SCCOc3ccccc3)sc2c1	/	/	-1.8%	4	/	-0.6	1.1%
Cc1cccn2c(=O)c3cc(C(=O)NCc4ccco4)c(=N)n(C(C)C)c3nc12	-3	-1%	14µM*	8	4.9	9.0	-1.2%
Cc1[nH]c2ccccc2c1C(=O)CSc1ccccc1	17	-2%	-1.9%	-14	4.6	3.5	10%
COc1cc(NS(C)(=O)=O)ccc1Nc1c2ccccc2nc2ccccc12	-1	-2%	4.4%	-6	-6.6	-0.5	-1.2%
O=C(Nc1c(C(=O)N2CCOCC2)oc2ccccc12)c1cccc([N+](=O)[O-])c1	-23	6%	-3.1%	2	/	-0.6	8.2%
O=C(CN1CCC(c2nc3ccccc3s2)CC1)NCc1cccs1	-17	-10%	-3.7%	21	4.4	1.8	?
CN(C(=O)CN1C(=O)S/C(=C\c2ccccc2F)C1=O)C1CCS(=O)(=O)C1 (stereo not drawn)	-11	6%	0.2%	2	3.1	-0.1	-0.4%
COc1ccc(C(N)c2csc(Nc3ccc(C(=O)NCCCO)cn3)n2)cc1 (stereo not drawn)	/	/	28µM*	/	/	-0.5	0.8%
NC(=O)c1cccc(CC(=O)c2ccccc2)c1	6	15%	0.7%	0	-0.3	-0.7	1.4%
COCCNc1ncnc2c1ncn2[C@H]1CN(Cc2ccncc2)C[C@@H](CO)O1	/	/	-3.7%	/	/	0.1	0.6%
COc1ccccc1-n1c(SCC(=O)Nc2cccc(S(N)(=O)=O)c2)nc2ccccc2c1=O	4	22%	/	14	-0.4	0.0	2.2%
More records
SMILES	TRPV1 potentiator	Sfp PPTase inh	ClpP mod	TRPML1 inh	Menin MLL FP FL	TRPML1 ag	PINK1 expr mod
CCC(CO)N=C1CC(C)(C)CC(=O)/C1=C(/O)CCCN1C(=O)c2ccccc2C1=O (stereo not drawn)	0	?	/	0	-3.4	-0.7	0.0%
Brc1ccc2c(c1)OCCOCCOCCOCCOCCOCCO2	-4	10%	-17%	-8	5.3	0.3	-1.6%
CCOC(=O)c1ccc(CN(Cc2ccc(C)cc2)S(=O)(=O)c2ccc(F)c(C(=O)Nc3ccc(C)c(F)c3)c2)cc1	/	/	-12%	3	/	0.4	-0.9%
Cc1ccc(-n2c(SCC(=O)N(C)C3CCS(=O)(=O)C3)nc3ccccc3c2=O)c(C)c1 (stereo not drawn)	/	/	0.5%	41	/	0.9	-4.7%
Cn1c(=O)c2c(nc(NCc3ccc4c(c3)OCO4)n2Cc2ccc(F)cc2)n(C)c1=O	-6	-4%	-0.9%	4	6.4	-0.3	/
COc1ncccc1C(=O)N1CCC(n2nccc2NC(=O)CC(C)C)CC1	5	7%	-0.2%	7	/	0.2	-0.9%
Cc1cc(C)cc(NC(=O)Cn2cc(C(=O)C3CCCCC3)c3ccccc32)c1	/	/	-3.5%	4	/	0.0	17%
CCOC(=O)N1CCC(NC(=O)c2ccc3c(c2)N(Cc2ccccc2)C(=O)c2ccccc2S3=O)CC1 (stereo not drawn)	/	/	0.2%	26	/	-0.8	0.6%
O=C(Cc1ccccc1)NC1CCS(=O)(=O)C1 (stereo not drawn)	-4	12%	-0.5%	-4	-2.5	0.7	1.4%
CC(=O)Oc1ccc(Cn2c(C)c(C(=O)NCc3ccc4c(c3)OCCO4)sc2=O)cc1	/	/	0.4%	/	/	-0.2	2.2%
